# CASP6 VEID inh = human caspase-6 inhibitors, primary screen, biochemical, VEID-R110 fluorescence, single point, set 2; purified caspase-6, Z-VEID-R110 cleavage fluorescence; P55212; inhibition, % at 12.5 µM; 0.53% of 350,000 active;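 active means mean inhibition across replicates at least about 35%, with every replicate also reaching that limit, limit read from the data; inconclusive means only one of the two criteria met; inactive means neither criterion met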;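 further: 0% = median of neutral control wells and 100% = no fluorescence left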
# Target sequence (P55212 24-179 limits assumed): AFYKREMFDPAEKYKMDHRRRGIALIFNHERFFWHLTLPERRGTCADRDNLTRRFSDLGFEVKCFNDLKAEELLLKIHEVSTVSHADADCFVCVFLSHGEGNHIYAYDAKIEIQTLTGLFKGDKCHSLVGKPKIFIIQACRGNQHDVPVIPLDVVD
# Target sequence (P55212 194-293 limits assumed): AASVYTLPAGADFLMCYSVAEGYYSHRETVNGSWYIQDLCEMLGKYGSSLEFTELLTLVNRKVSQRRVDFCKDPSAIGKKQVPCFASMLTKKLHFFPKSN
# DENV2 CPE = inhibitors of DENV2 cytopathic effect, primary screen, cell-based, plate reader, single concentration. DENV2-infected cells, cytopathic effect rescue. CPE inhibition, % at 9.99 µM. 1.7% of 350,000 active. AID 651640, 2012; in the data active means CPE inhibition above about 20%, passing the limit was not always enough; inconclusive means no clear call, values can overlap the other calls; tested in BHK-21 cells;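 further: 0% = median of neutral control wells and 100% = median of positive control wells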
# PAX8 inh HTS = inhibitors of PAX8-driven TPO luciferase reporter, primary screen, RMG-I cells, single concentration | SteadyGlo, 24 h | inhibition, % at 12.6 µM | 1.2% of 360,000 active | AID 652154, 2013;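 active means mean replicate inhibition at least 60% with every replicate also reaching 60%; inconclusive means only one of the two criteria is met; inactive means mean below 60% and not all replicates reaching 60%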;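 further: luciferase light reporting Pax8 driven TPO promoter activity; plate controls were median of neutral control wells for no effect and mitoxantrone controls for full effect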
# LGR2 antag = inhibitors of bursicon-induced LGR2 CRE-luciferase signal, primary screen, cell-based, HEK293, CRE-luciferase reporter, bursicon stimulation. Drosophila bursicon receptor LGR2 (rickets). bursicon-stimulated, 4 h. inhibition, % at 9.99 µM. 0.35% of 380,000 active. AID 720647, 2013;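 active means drop in luminescence signal, shown as inhibition above about 50% in the replicate tests, limit read from the data, passing the limit was not always enough; inconclusive means probably only some replicates passing the limit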;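 further: agonist challenge used bursicon conditioned medium at about half maximal strength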
# EWS-Fli inh = EWS/Fli-driven NR0B1 reporter inhibitors, primary screen, A673 cells, NR0B1 luciferase, luminescence, MLPCN library; viability-normalised; inhibition, % at 12.6 µM; 0.67% of 350,000 active; AID 651661, 2012;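 active means mean inhibition of at least 50% after viability correction, with every replicate also passing that limit; inconclusive means mean reaches 50% but only one of two replicates passes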;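 further: firefly luciferase signal divided by Alamar Blue viability fluorescence both relative to DMSO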
# SIRT5 inh = SIRT5 desuccinylase inhibitors, primary screen, biochemical, fluorescence imaging, single point, set 5. NAD-dependent protein deacylase sirtuin-5, mitochondrial (Homo sapiens), Q9NXA8. Purified SirT5, succinyl-peptide AMC, trypsin-coupled fluorescence. inhibition, % at 15 µM. 1.1% of 330,000 active; in the data active means inhibition above about 15%; inconclusive means no clear call, values can overlap the other calls
# Target sequence (Q9NXA8 whole entry, looked up): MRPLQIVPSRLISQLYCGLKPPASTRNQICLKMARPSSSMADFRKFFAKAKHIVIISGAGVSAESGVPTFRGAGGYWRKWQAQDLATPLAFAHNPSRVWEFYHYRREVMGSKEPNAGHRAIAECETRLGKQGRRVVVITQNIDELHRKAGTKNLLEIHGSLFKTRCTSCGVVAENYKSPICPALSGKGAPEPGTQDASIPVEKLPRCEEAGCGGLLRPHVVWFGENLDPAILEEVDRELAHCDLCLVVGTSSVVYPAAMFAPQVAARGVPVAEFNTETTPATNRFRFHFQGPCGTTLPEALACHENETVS
# * = called active by the depositor; ? = inconclusive; nt = not tested or not shown; & = joins results of further samples.
# Order of results – CASP6 VEID inh, DENV2 CPE, PAX8 inh HTS, LGR2 antag, EWS-Fli inh, SIRT5 inh
> COc1cc(C(=O)NCCc2c[nH]c3ccccc23)ccc1OCc1c(C)noc1C
 : -3, 2, 7, 3, 26, 1
> COc1ccc(Cc2nnc(NN)[nH]c2=O)cc1OC
 : 3, 10, 13, 3, 6, 0
> Cc1cnc(C(=O)Nc2nnc(C)s2)cn1
 : nt, nt, -3, nt, nt, nt
> C[C@H](CO)N1C[C@H](C)[C@@H](CN(C)Cc2ccc(-c3ccccc3)cc2)Oc2c(NC(=O)c3ccncc3)cccc2C1=O
 : 1, -3&7, 6&20, 0&3, -15&2, 1
> Cc1scc(C(=O)N/N=C/c2ccc([N+](=O)[O-])o2)c1C
 : 5, -3, 24, -4, 43, -2
> CC(C)Oc1ccc(-c2nc(NCC3CCCO3)c3ccccc3n2)cc1 (configuration not stated)
 : 5, -3, 3, -42, -1, nt
> CCCCOC(=O)c1cc(Cl)c(O)c(OC)c1
 : 1, -2, -9, -17, -8, -5
> O=C(Nc1cccc([N+](=O)[O-])c1)c1cc(S(=O)(=O)Nc2ccccn2)ccc1Cl
 : 4, -10, 7, 6, 1, -1
> Brc1ccccc1-c1nnc(SCc2nc3ccccc3s2)o1
 : 5, 14, 45, -14, -109, 0
> COc1ccccc1/C=C1\C(=O)Nc2ccccc21
 : 1, ?, 50, 16, 1, 16*
> CC(=O)N/C(=C\c1ccccc1)C(=O)OC(C)C(=O)NCc1ccccc1 (configuration not stated)
 : 1, 1, -10, 2, 5, 0
> CCN(Cc1cc(=O)n2ccsc2n1)Cc1nc2cc(OC)c(OC)cc2c(=O)[nH]1
 : 7, 14, 14, 4, -2, -7
> Nc1ccc(C(=O)OC2CCOC2=O)cc1[N+](=O)[O-] (configuration not stated)
 : nt, nt, nt, 16, nt, nt
> Cc1ccc2cc(C#N)c(NCCNC(=S)NCCCN(C)C)nc2c1C
 : -68, -1, 8, 26, 10, -5
> COc1cccc(NC(=O)N2CCN(c3nc(-c4cccc(OC)c4)cs3)CC2)c1
 : 1, 0, 28, -5, -5, -1
> COCCCn1c(C)nnc1SCC(=O)Nc1cccc(C)c1
 : 1, -1, -23, -4, -53, -8
> CC(C)NC(=O)Nc1cccc2c1O[C@@H](CN(C)C(=O)Nc1ccc(C(F)(F)F)cc1)[C@@H](C)CN([C@H](C)CO)C2=O
 : -2, ?, 4, -1, 10, 8
> O=c1c(NCCc2ccc(Cl)cc2)c(-c2ccccc2)c1=O
 : -5, -1, -41, -7, -5, -2
> O=C(Cn1nc(-c2ccccc2)nc1-c1ccccc1)OC1CCCCC1
 : 12, nt, nt, 9, 10, -4
> Cc1ccc(S(=O)(=O)N(C)C[C@H]2Oc3c(NC(=O)NC4CCCCC4)cccc3C(=O)N([C@H](C)CO)C[C@@H]2C)cc1
 : 4, -7, -18, -8, 5, 5
> O=C(Nc1ccccc1N1CCOCC1)c1cc(Cl)c2c(c1)OCO2
 : -5, -7, 0, 3, 6, -2
> C=CCSc1n[nH]c(-c2cccs2)n1
 : -1, 5, 9, -10, 2, -2
> Cc1ccc(NC(=O)c2ccc(NCCN)c([N+](=O)[O-])c2)cc1
 : -2, 4, -8, 2, 40, -4
> C[C@@H]1CCCCO[C@@H](CN(C)S(=O)(=O)c2cccs2)[C@@H](C)CN([C@H](C)CO)C(=O)c2cc(NS(C)(=O)=O)ccc2O1
 : 0, 2, 3, 15, -7, 0
> CCNC(=O)Nc1ccc2c(c1)C(=O)N(C)[C@@H]1CC[C@@H](CC(=O)N[C@H](C)c3ccccc3)O[C@H]1CO2
 : 0, 6, -18, -8, -6, 4
> Cc1cc(Br)ccc1SCC(=O)OCC(=O)Nc1ccccc1C#N
 : nt, nt, 22, 2, nt, nt
> O=C(CN1C(=O)COc2ccc(Cl)cc21)Nc1ccccn1
 : -1, 0, -6, 11, -6, -6
> CCN1CCCC1CNC(=O)c1cc(S(=O)(=O)N(C)C)ccc1Cl (configuration not stated)
 : -6, -1, -1, 3, 0, 0
> O=C(C[C@H]1C[C@@H]2c3cc(NC(=O)CC4CC4)ccc3O[C@@H]2[C@H](CO)O1)NCc1cccc(F)c1
 : -3, -2, nt, -12, 1, 1
> CNC[C@@H]1Oc2c(NS(=O)(=O)c3cccs3)cccc2C(=O)N([C@@H](C)CO)C[C@H]1C
 : -1, -15, nt, -9, -3, 6
> COCCNC(=O)C[C@@H]1C[C@@H]2c3cc(NC(=O)C4CCOCC4)ccc3O[C@@H]2[C@H](CO)O1
 : -1, 9, -1, -4, -2, 0
> O=C(Cn1cnc2sc3c(c2c1=O)CCCC3)NCC(=O)Nc1c(F)cccc1F
 : 0, 6, -20, -3, nt, 1
> CCN1CCCC1CNS(=O)(=O)c1ccc(F)c(Cl)c1 (configuration not stated)
 : nt, -4, -3, -23, -1, -4
> CCCN(CCC)CCCNc1ccc(C(=O)Nc2cccc(OC)c2)cc1[N+](=O)[O-]
 : -3, 4, -11, 9, 9, 3
> CCN(CC)S(=O)(=O)c1ccc2c(c1)N(CC(=O)N1CCCC1)C(=O)CO2
 : -111, 0, -35, -13, 10, -3
> Cc1cc(O)c(C(=O)/C=C/c2cccc([N+](=O)[O-])c2)c(=O)o1
 : -1, -10, 0, nt, 1, 7
> Cc1ccc(CNC(=O)Cn2cnc(S(=O)(=O)N3CCC(C)CC3)c2)o1
 : 0, 2, -12, -4, -17, 1
> Cc1nn(C)c(C(=O)N/N=C/c2ccccn2)c1[N+](=O)[O-]
 : -8, -10, 3, 8, 11, 0
> N#Cc1ncn(-c2ccc(Oc3ccccc3)cc2)c1N
 : 2, 0, 1, -1, 2, -7
> C/C(=N\NC(=O)c1ccc(NS(=O)(=O)c2cccs2)cc1)c1ccc(Cl)cc1
 : nt, nt, -1, -1, nt, nt
> CN(C)c1nc(C(=O)NN)nc(N(C)C)n1
 : -1, nt, nt, -8, -1, -4
> O=C(NCc1ccco1)C1(S(=O)(=O)c2ccccc2)CC=CC1
 : -2, 41*, -6, -9, -18, nt
> CC(C)NC(=O)Nc1cccc2c1O[C@@H](CN(C)Cc1ccc(Oc3ccccc3)cc1)[C@@H](C)CN([C@H](C)CO)C2=O
 : -1, 8, 9, -11, 7, -1
> O=S(=O)(Cc1c(F)cccc1Cl)c1ncn[nH]1
 : -3, 2, 0, 20, 8, -2
> C=CCSc1nnc2c(n1)[nH]c1c(C)cccc12
 : -1, -3, nt, nt, -51, -3
> O=C(NC1CCCCC1)C(c1ccc(F)cc1)N(C(=O)c1cccs1)c1ccc2c(c1)OCO2 (configuration not stated)
 : 0, 11, nt, -9, 3, -1
> Cc1ccc(C(=O)N/N=C\c2ccccn2)cn1
 : 3, 12, -3, nt, -9, -2
> O=C(C[C@@H]1C[C@@H]2c3cc(NC(=O)NC4CCCCC4)ccc3O[C@@H]2[C@H](CO)O1)NCc1ccccc1
 : 0, -11, -5, 2, 12, 0
> CC(C)NC(=O)N1[C@H](CO)[C@@H]2c3ccccc3NC[C@@H]21
 : 1, 3, -47, -10, 4, 3
> COc1ccccc1-n1c(-c2ccc(NS(C)(=O)=O)cc2)n[nH]c1=S
 : nt, nt, nt, 3, nt, nt
> CC1CC(C)CN(C(=O)COC(=O)c2ccc(S(=O)(=O)N(C)c3ccccc3)cc2)C1 (configuration not stated)
 : 3, -2, -18, 4, -5, 4
> COc1ccc(S(=O)(=O)c2c(O)c3ccc(C(=O)Nc4ccc(F)cc4F)cc3[nH]c2=O)cc1
 : 0, 9, 9, 2, 4, 2
> Cc1ccc(O)c(C(=O)CC(=O)c2ccccc2Cl)c1
 : -3, -3, -142, -74, 20, 0
> CC1CCN(c2ccc(-c3cccc(NC(=O)c4ccco4)c3)nn2)CC1
 : 9, 2, -62, -26, 32, -5
> CO[C@H]1CN(C)C(=O)c2cc(NS(=O)(=O)CC(F)(F)F)ccc2OC[C@@H](C)N(Cc2cccnc2)C[C@@H]1C
 : -4, 6, -28, 3, -7, nt
> O=C(N/N=C/c1ccoc1)c1ccc(Cl)cc1Cl
 : 8, 6, -39, 0, nt, -1
> O=C(N/N=C/c1ccccn1)c1cc(Br)ccc1O
 : 1, -5, -17, -15, 6, -5
> C(=N\Nc1nn2cnnc2c2ccccc12)/c1ccco1
 : 1, 1, 17, 24, 10, 5
> CC(C)NC(=O)CNc1ccc(C(F)(F)F)cc1[N+](=O)[O-]
 : 2, nt, 17, 39, -11, -4
> CN(C)CCCN(C(=O)c1ccc(C(=O)c2ccccc2)cc1)c1nc2cc3c(cc2s1)OCCO3
 : -47, -7, -9, 9, 3, 2

# Going on with the list:
# Order of results – CASP6 VEID inh, DENV2 CPE, PAX8 inh HTS, LGR2 antag, EWS-Fli inh, SIRT5 inh
> O=C(N/N=C(\Cc1ncc[nH]1)c1ccccc1)c1cccnc1
 : 4, nt, 28, 4, 10, -1
> COc1ccccc1CC(=O)Nc1ccc([N+](=O)[O-])cc1OC
 : 1, 4, 57, nt, -3, nt
> CC(C)COc1ccc(C(=O)OCCN2CCCCC2)cc1
 : nt, 7, -6, -7, 3, -4
> NC(=O)C(c1ccc(Sc2ccccc2)nn1)c1ccc(Cl)cc1Cl (configuration not stated)
 : nt, nt, nt, 1, nt, nt
> O=C(NC1CCCCCC1)C1CCN(C(=O)c2ccc(Br)cc2)CC1
 : -4, -8, 6, -4, nt, 0
> O=C(OC1CCOC1=O)c1cccc(S(=O)(=O)Nc2cccc(Cl)c2)c1 (configuration not stated)
 : nt, nt, 10, -13, nt, nt
> O=C(NCCc1ccccc1)c1ccc(=O)[nH]c1
 : nt, nt, nt, -14, nt, nt
> COc1ccc(NS(=O)(=O)c2cccc(C(=O)NCc3ccccn3)c2)cc1
 : -77, -2, -10, 9, 0, 0
> O=c1cc(O)nc(SCc2ccccc2Cl)[nH]1
 : nt, nt, nt, 5, nt, nt
> O=C(Nc1ccccc1)N1CCCCN2[C@H](CO)[C@@H](c3ccc(C#CC4CC4)cc3)[C@H]2C1
 : -3, -8, -21, -3, nt, -11
> Cc1ccc(NC2SC(=O)N(CC(=O)O)C2=O)cc1 (configuration not stated)
 : nt, nt, nt, 0, nt, nt
> C=CCn1c(CNC(=O)c2ccccc2F)nnc1SCc1nc2ccccc2c(=O)[nH]1
 : -1, -5, -2, 25, 2, 0
> O=C(COC(=O)CSc1cccc2cccc(Cl)c12)Nc1ncc(C(F)(F)F)cc1Cl
 : 4, -21, 29, -1, 6, nt
> COc1cc(OC)cc(C(=O)Nc2ccc(S(=O)(=O)Nc3ccccn3)cc2)c1
 : -1, -2, -7, -4, -11, 3
> COc1ccc(NC(=O)N(C)C[C@H]2Oc3ccc(NS(=O)(=O)c4cn(C)cn4)cc3C(=O)N([C@H](C)CO)C[C@H]2C)cc1
 : 2, -1, nt, 9, -6, -5
> C[C@@H]1CN([C@@H](C)CO)C(=O)c2cc(NC(=O)Nc3cccc4ccccc34)ccc2O[C@@H]1CN(C)C(=O)Nc1ccc(C(F)(F)F)cc1
 : -2, 4, nt, -8, -9, 3
> Cc1ncccc1C(=O)N1CCCC(CNC(=O)C2(c3ccc(Cl)cc3)CC2)C1 (configuration not stated)
 : -1, 3, 8, 3, 4, 0
> Cc1ccccc1NC(=O)c1ccc(C)c(S(=O)(=O)Nc2ccccn2)c1
 : -7, 4, nt, -3, -12, 0
> O=C(OCC(=O)c1ccc(Cl)s1)c1ccccn1
 : -1, 5, -13, -6, 0, -2
> CCc1sc(C(=O)NC2CCN(C)CC2)cc1Br
 : nt, nt, nt, 0, nt, nt
> CNC(=O)CSc1nnc(-c2ccco2)n1-c1ccccc1
 : 0, 2, -8, 3, 4, 101*
> COc1cc2c(cc1OC)CN(C(=O)CNS(=O)(=O)c1ccc(C)c(C)c1)CC2
 : 2, 0, 6, 8, nt, 6
> C[C@@H]1CN([C@H](C)CO)C(=O)c2cc(C3=CCCCC3)cnc2O[C@@H]1CN(C)C(=O)Cc1cccnc1
 : 2, 56*, nt, -3, -3, -3
> CNS(=O)(=O)c1cccc(C(=O)Nc2cccnc2)c1
 : nt, nt, nt, -33, nt, nt
> O=C(COC(=O)c1ccccn1)c1ccc(Br)cc1
 : nt, nt, 3, nt, nt, nt

# SIRT5 inh, entries above that show a hit
compound	CASP6 VEID inh	DENV2 CPE	LGR2 antag	SIRT5 inh
COc1ccccc1/C=C1\C(=O)Nc2ccccc21	1	?	16	16*
CNC(=O)CSc1nnc(-c2ccco2)n1-c1ccccc1	0	2	3	101*

# Screening results as filed in PubChem BioAssay.

# The list is partial; the hit share may differ from the screen's.
